# Screening data deposited in PubChem by several laboratories.
# PKD1 inh: inhibitors of human PKD1 kinase | Q15139 | PKD1 kinase fluorescence polarization assay | inhibition, %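 (about 10 µM by stock and volumes)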 | actives 0.056% (n = 200,000);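 active = inhibition of 50% or more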;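 also: controls were vehicle for no effect and a reference inhibitor for full effect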
# Target sequence (Q15139 whole entry, looked up): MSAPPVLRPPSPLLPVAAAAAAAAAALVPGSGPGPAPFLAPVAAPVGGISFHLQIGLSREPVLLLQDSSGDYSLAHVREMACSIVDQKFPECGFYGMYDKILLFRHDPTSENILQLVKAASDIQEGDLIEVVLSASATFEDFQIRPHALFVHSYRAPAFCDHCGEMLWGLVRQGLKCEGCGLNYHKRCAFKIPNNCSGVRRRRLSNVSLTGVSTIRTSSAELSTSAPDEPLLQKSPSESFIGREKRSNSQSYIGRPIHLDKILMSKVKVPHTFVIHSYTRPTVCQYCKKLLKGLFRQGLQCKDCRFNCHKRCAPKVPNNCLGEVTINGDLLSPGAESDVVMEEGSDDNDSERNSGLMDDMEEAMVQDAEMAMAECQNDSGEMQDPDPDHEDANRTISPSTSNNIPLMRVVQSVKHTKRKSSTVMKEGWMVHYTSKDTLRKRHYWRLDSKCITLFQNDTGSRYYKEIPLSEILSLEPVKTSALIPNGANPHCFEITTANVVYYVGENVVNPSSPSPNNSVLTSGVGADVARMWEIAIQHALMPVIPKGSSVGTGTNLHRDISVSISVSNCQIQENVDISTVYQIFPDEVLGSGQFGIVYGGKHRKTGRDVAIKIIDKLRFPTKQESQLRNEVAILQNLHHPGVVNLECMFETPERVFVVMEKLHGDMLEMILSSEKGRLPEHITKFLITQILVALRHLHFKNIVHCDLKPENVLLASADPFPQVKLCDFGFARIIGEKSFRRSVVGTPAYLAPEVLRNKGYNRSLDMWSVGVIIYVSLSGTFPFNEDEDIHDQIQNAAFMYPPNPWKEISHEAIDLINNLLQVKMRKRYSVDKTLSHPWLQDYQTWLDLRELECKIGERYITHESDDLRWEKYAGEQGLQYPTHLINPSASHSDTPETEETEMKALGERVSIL
# GALR2 agonist: activates the human galanin receptor 2. activation, %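 (tested at 5 µM)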. O43603. actives 0.48% (n = 140,000). GALR2-expressing cells, agonist activation read-out;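 active = above mean plus 3 SD of all compounds, about 5% in these data, not always enough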;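 also: 0% = vehicle buffer wells and 100% = reference agonist at full effect; tested in CHO reporter cells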
# RGS16-Gao: modulates binding between human RGS16 and Galphao. bead-based flow cytometry RGS16-Galphao binding, fluorescence; actives lie on both sides. binding response (% of control), % at 10 µM. actives 0.38% (n = 220,000). AID 1441;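 active = below 25% or above 175%, edge rows of some plates excepted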;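 also: Galphao activated by GDP with aluminum fluoride before binding; 100% = wells without compound and 0% = beads without RGS; some results beyond the cut were filed as inactive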
# INS promoter inh: TRM-6 insulin promoter activity inhibition | inhibition, % at 2 µM | TRM-6 cells (human fetal islet line), insulin promoter-eGFP reporter, imaging; reporter expression induced with tamoxifen | actives 0.9% (n = 130,000) | AID 1273;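 active = inhibition above the mean plus 3 SD, with well images judged a real hit on visual review, cut at about 60% in these data, passing the limit was not always enough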
# HSV augment: increases HSV replication in cells | HSV replication augmentation in cells, fold increase | maximum fold increase | actives 0.005% (n = 220,000) | AID 1956;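 active = peak rise of 1.5-fold or more in the series; tested in PC3 cells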;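 also: first round at 10 µM; read as green reporter fluorescence; hits show the peak of a series up to 25 µM; 1 = signal of infected wells without compound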
# INS promoter inh cell count: second read-out of INS promoter inh, no call of its own (marks repeat the call); normalized cell count, %; measured here: cell count, toxicity; reference of the scale not given here;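 cells exposed to compound for 48 h; stained nuclei by imaging scaled within each plate; lower means fewer cells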
# HSV augment primary fold: further read-out of HSV augment, marked with its call; fold increase; compound at 10 µM; measured here: primary screen fold increase 10 uM; tested in PC3 cells;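 GFP signal in the first replicate; 1 = infected wells without compound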
# An asterisk follows results filed as active; i = inactive; / = not tested or not shown.
# Below each compound: RGS16-Gao	INS promoter inh cell count	HSV augment	PKD1 inh	HSV augment primary fold	INS promoter inh	GALR2 agonist
> Cc1cc(O)c(C(C[N+](=O)[O-])c2ccc(Cl)cc2)c(=O)o1 (stereo not given)
 : 102	66	i	-3	0.88	35	-1.7
> CCCN(CCC)CCCNC(=O)CCNS(=O)(=O)c1ccc(Br)cc1
 : 116	101	i	-6	0.87	-33	-0.3
> Cc1ccc[n+](C(C)C(=O)Nc2ccc([N+](=O)[O-])cc2C)c1 (stereo not given)
 : 100	/	i	-6	0.98	/	/
> C=CCN(c1ccccc1Cl)S(=O)(=O)c1cccc(C(=O)OCC(=O)N(C)C2CCS(=O)(=O)C2)c1 (stereo not given)
 : 105	199	i	1	0.9	-50	/
> O=C(COC(=O)Cc1ccsc1)NC(c1ccccc1)c1ccccc1
 : 101	/	i	8	1.1	/	-0.5
> CC1CCC/C(=N\NS(=O)(=O)c2ccccc2)C1 (stereo not given)
 : 107	/	i	/	1.1	/	/
> Cc1ccc(NC(=O)c2cncc(Br)c2)cc1S(=O)(=O)N(C)C
 : 107	116	i	-5	0.92	22	-1.9
> C/C(=N\Nc1ccc(C(F)(F)F)cc1[N+](=O)[O-])C1CC1
 : 103	117	i	-6	1.1	-7	1.0
> COc1ccc(-c2n[nH]c(=S)o2)c(OC)c1
 : 98	93	i	-4	0.97	2	-1.1
> Cc1ccc(C)n1Cc1ccc(C(=O)O)cc1
 : 76	133	i	2	1.1	-62	-5.2
> Cn1c(=NC(=O)c2ccco2)sc2cccc(F)c21
 : 102	/	i	6	0.73	/	-2.1
> CN(Cc1ccccc1)C(=S)NC(=O)c1ccccc1
 : 94	/	i	1	0.95	/	/
> COc1cc([N+](=O)[O-])ccc1NC(=O)Cc1ccc(C)cc1
 : 105	103	i	1	0.91	33	/
> CCC1=NN(C(=O)COc2ccccc2)C(O)(c2ccc(Br)cc2)C1 (stereo not given)
 : 111	/	i	-5	0.81	/	/
> Cc1ccc(S(=O)(=O)N/N=C2/CC(=O)CC(C)(C)C2)cc1[N+](=O)[O-]
 : 105	/	i	/	1	/	/
> CN1C(=O)N(C)C2(c3ccccc3)Nn3c(s/c(=C/c4ccccc4F)c3=O)=NC12c1ccccc1 (stereo not given)
 : 87	91	/	-4	/	-46	-2.5
> O=C(COC(=O)c1cc(Br)ccc1Cl)NC(=O)NCc1ccccc1
 : 110	106	i	-5	0.89	19	-1.7
> CC(=O)c1ccc(S(=O)(=O)Nc2cccc(-c3cn4c(n3)SCC4)c2)cc1
 : 104	/	i	-3	0.96	/	/
> O=C(c1ncn[nH]1)N1CCN(c2nc(-c3ccccc3)cs2)CC1
 : 100	114	i	2	0.9	-95	-2.0
> COc1cc(CN2CCN(Cc3ccc(SC)cc3)CC2)cc(OC)c1O
 : 104	/	i	1	0.95	/	/

# (further entries)
# Below each compound: RGS16-Gao	INS promoter inh cell count	HSV augment	PKD1 inh	HSV augment primary fold	INS promoter inh	GALR2 agonist
> COC(=O)c1[nH]c2ccccc2c1NC(=O)c1ccccc1F
 : 95	/	i	/	0.96	/	/
> Cc1cccc(/C=N/NC(=O)NC23CC4CC(CC(C4)C2)C3)n1
 : 99	/	i	/	1	/	/
> c1ccc(N=C(c2cccs2)N2CCOCC2)cc1
 : 101	68	i	0	0.9	26	-0.5
> CCC(NC(=O)NNC(N)=S)(C(F)(F)F)C(F)(F)F
 : 102	/	i	/	1.1	/	/
> Cc1ccc(CNC(=O)CN2CCCC(C)C2)cc1 (stereo not given)
 : 99	103	i	-8	0.93	-19	-1.2
> O=C(Nc1ccccc1)c1[nH]ncc1[N+](=O)[O-]
 : 106	100	i	-8	0.83	10	-0.8
> COc1cc(/C=N/NS(=O)(=O)c2ccc3ccccc3c2)ccc1OCc1ccc(C(=O)O)cc1
 : 99	/	i	/	0.94	/	/
> Cc1[nH]nc(N)c1N=Nc1ccc(Br)cc1
 : 100	/	i	1	0.89	/	/
> COC(=O)c1csc2c(C(F)(F)F)cc(N3CCN(C(=O)Nc4ccccc4)CC3)nc12
 : 97	/	i	/	0.86	/	/
> O=C(Nc1ccc(Br)cc1)c1cnccn1
 : 102	110	i	-3	0.71	3	-1.2
> CC(C)c1ccc(OCC(=O)NC2=NCCS2)cc1
 : 97	/	i	-2	0.95	/	/
> COc1ccc(CNC(=O)Nc2cc(C)cc(C)c2)cc1
 : 107	/	i	/	1.1	/	/
> O=S(=O)(c1ccc(Br)cc1)c1nc(-c2ccccc2)oc1NCc1cccnc1
 : 105	155	i	-10	0.98	-52	0.2
> COC(=O)C1(O)CC(CC(C)C)=NN1C(=O)c1ccccc1 (stereo not given)
 : 106	98	i	-9	0.97	13	-2.0
> O=C(NCC1CCCO1)NC1(C(F)(F)F)Oc2ccccc2O1 (stereo not given)
 : 106	81	i	10	0.86	-45	-0.5
> Cc1ccc(C)c(-c2csc(N)c2C(=O)OC(C)C)c1
 : 101	98	i	-2	0.97	13	-0.6
> Cc1cc(NC(=O)NC(C)(C(F)(F)F)C(F)(F)F)no1
 : 95	/	i	/	1.1	/	/
> CCOc1cc(CO)cc(Br)c1OCC(=O)Nc1ccccc1C
 : 103	/	i	-3	0.92	/	/
> CCCCCCCN1C/C=C\C(c2ccc(OC)cc2)N(Cc2ccc(F)cc2)C(=O)[C@H]1Cc1ccccc1 (stereo not given in full)
 : 104	/	i	/	0.98	/	/
> N#CCCN(C(=O)COC(=O)c1cccc(S(=O)(=O)Nc2ccc([N+](=O)[O-])cc2)c1)c1ccccc1
 : 109	103*	i	-5	0.84	69*	0.2

# 13 structures already listed, ordered by molar mass, low to high.
# Below each compound: RGS16-Gao	INS promoter inh cell count	HSV augment	PKD1 inh	HSV augment primary fold	INS promoter inh	GALR2 agonist
> Cc1ccc(C)n1Cc1ccc(C(=O)O)cc1
 : 76	133	i	2	1.1	-62	-5.2
> c1ccc(N=C(c2cccs2)N2CCOCC2)cc1
 : 101	68	i	0	0.9	26	-0.5
> Cn1c(=NC(=O)c2ccco2)sc2cccc(F)c21
 : 102	/	i	6	0.73	/	-2.1
> O=C(Nc1ccc(Br)cc1)c1cnccn1
 : 102	110	i	-3	0.71	3	-1.2
> CN(Cc1ccccc1)C(=S)NC(=O)c1ccccc1
 : 94	/	i	1	0.95	/	/
> C/C(=N\Nc1ccc(C(F)(F)F)cc1[N+](=O)[O-])C1CC1
 : 103	117	i	-6	1.1	-7	1.0
> Cc1ccc[n+](C(C)C(=O)Nc2ccc([N+](=O)[O-])cc2C)c1 (stereo not given)
 : 100	/	i	-6	0.98	/	/
> Cc1cc(O)c(C(C[N+](=O)[O-])c2ccc(Cl)cc2)c(=O)o1 (stereo not given)
 : 102	66	i	-3	0.88	35	-1.7
> COC(=O)c1[nH]c2ccccc2c1NC(=O)c1ccccc1F
 : 95	/	i	/	0.96	/	/
> O=C(c1ncn[nH]1)N1CCN(c2nc(-c3ccccc3)cs2)CC1
 : 100	114	i	2	0.9	-95	-2.0
> CCOc1cc(CO)cc(Br)c1OCC(=O)Nc1ccccc1C
 : 103	/	i	-3	0.92	/	/
> O=C(COC(=O)c1cc(Br)ccc1Cl)NC(=O)NCc1ccccc1
 : 110	106	i	-5	0.89	19	-1.7
> C=CCN(c1ccccc1Cl)S(=O)(=O)c1cccc(C(=O)OCC(=O)N(C)C2CCS(=O)(=O)C2)c1 (stereo not given)
 : 105	199	i	1	0.9	-50	/

# (next part)
# Below each compound: RGS16-Gao	INS promoter inh cell count	HSV augment	PKD1 inh	HSV augment primary fold	INS promoter inh	GALR2 agonist
> CC(=O)c1ccc(N2CCN(C(=O)Nc3cccc(F)c3)CC2)cc1
 : 95	/	i	6	0.93	/	/
> Cc1cc(Oc2ccccc2)nc(N2CCOCC2)n1
 : 109	/	i	0	0.76	/	0.8
> Cc1cc(=O)oc(C)c1C(=O)NCC(C)C
 : 110	/	i	-7	0.87	/	0.4
> CCN(CC)C(=O)Oc1ccc(Cl)c2ccccc12
 : 89	151	i	0	1	-36	-0.5
> O=C(O)c1ccc2cccc(Cl)c2c1O
 : 92	74	i	-3	0.98	-324	-2.3
> O=C(COC(=O)c1ccccc1Cl)NC(=O)NCc1ccccc1
 : 83	60	i	-12	1	-8	-1.9
> O=C(NCc1ccc2c(c1)OCO2)C12CC3CC(CC(C3)C1)C2
 : 99	109	i	3	0.77	-7	-1.6
> Cc1ccc(C2=Nc3ccccc3N=C(c3ccc([N+](=O)[O-])cc3)C2)c(O)c1
 : 116	/	i	5	1.2	/	0.0
> C=CCNC(=O)NC(=O)COC(=O)c1cccnc1SC
 : 106	136	i	-5	0.93	-25	-1.7
> Cc1c(C(=O)N2CCCC2)sc(NC(=O)c2ccco2)c1C#N
 : 107	143	i	1	1.1	-5	-1.6
> Cc1ccc(CC(CC(=O)Nc2cccc(C(F)(F)F)c2)C(=O)O)cc1 (stereo not given)
 : 105	/	i	4	1.1	/	/
> O=S(=O)(C=C(c1ccccc1)c1ccccc1)c1ccccc1
 : 103	/	i	2	0.79	/	-2.2
> CCOC(=O)C(C)Sc1cc(CS(=O)(=O)c2ccccc2)nc(-c2ccccc2)n1 (stereo not given)
 : 102	78	i	-4	1.1	-20	-1.0
> O=C(NCc1ccco1)c1c(F)c(F)c(F)c(C(=O)NCc2ccco2)c1F
 : 101	58	i	-2	0.91	18	/
> CC1CN(C(=O)N2c3ccccc3Sc3ccccc32)CC(C)O1 (stereo not given)
 : 107	99	i	-2	1.1	-27	-1.0
> Cc1cc(C(=O)CC#N)c(C)n1CC(F)(F)F
 : 104	82	i	-9	0.92	0	-1.6
> O=C(Nc1ccc(Cl)cc1)N1CCC(c2nc(-c3cccs3)no2)CC1
 : 110	50	i	17	0.95	-6	-2.9
> CN(C(=O)Cn1cc(C(F)(F)F)ccc1=O)c1c(N)n(Cc2ccccc2)c(=O)[nH]c1=O
 : 99	/	i	/	0.9	/	/
> CCN(CC)c1ccc(/C=C(\C#N)C(=O)c2ccc(Br)cc2)cc1
 : 126	/	i	-42	1.2	/	-0.1
> Cc1ccc(Cl)cc1N1CCN(C(=O)Cc2csc(Nc3nc(=S)[nH]c4ccccc34)n2)CC1
 : 107	128	i	3	1	-14	/

# More entries:
# Below each compound: RGS16-Gao	INS promoter inh cell count	HSV augment	PKD1 inh	HSV augment primary fold	INS promoter inh	GALR2 agonist
> Clc1ccccc1-c1nn2c(Cn3cnc4ccccc43)nnc2s1
 : 95	137	/	-43	/	57	-0.8
> COc1cccc(-c2nc(N3CCCC3)c3ccccc3n2)c1O
 : 102	/	i	/	0.95	/	/
> N#CCC(=O)Nc1ccc(C(=O)Nc2cccc(S(N)(=O)=O)c2)cc1
 : 100	/	i	/	1.2	/	/
> CCOC(=O)C1CCCN(C2CC(=O)N(c3cccc(C(F)(F)F)c3)C2=O)C1 (stereo not given)
 : 83	134	i	-9	0.93	5	0.5
> Cc1ccc(S(=O)(=O)N2CCN(S(=O)(=O)N3CCCCCC3)CC2)cc1
 : 100	/	i	-3	0.94	/	/
> Cc1nn(CC#N)c(=O)n1-c1ccc(Cl)cc1
 : 102	/	i	-4	1	/	/
> O=C(NCc1ccc2c(c1)OCO2)c1cc(=O)[nH]c2ccccc12
 : 98	/	i	/	0.96	/	/
> O=C1CC(c2ccc(F)cc2)Cc2nc(NCC3CCCO3)ncc21 (stereo not given)
 : 97	176	i	-6	0.79	27	-1.1
> CCn1cc(C2=NOC(C(=O)Nc3c(C)nn(Cc4ccc(F)cc4)c3C)C2)c(C)n1 (stereo not given)
 : 100	/	i	4	1	/	-1.6
> C=C(C)CN(CC)C(=O)CSc1nc(O)cc(=O)n1C1CCCC1
 : 107	138	i	12	0.88	0	/
> CCOC(=O)c1cc2c(nc1C)-c1cc(Cl)cc(Cl)c1OC2O (stereo not given)
 : 97	128	i	-4	0.9	-60	/
> CCCNc1nc2c(c(=O)[nH]c(=O)n2C)n1Cc1ccc(F)cc1
 : 99	/	i	-9	1.1	/	-2.7
> CC1(C(=O)O)Cc2ccccc2C(=O)O1 (stereo not given)
 : 60	105	i	-4	1	-57	-3.3
> O=C(CC12CC3CC(CC(C3)C1)C2)NCO
 : 113	/	i	-19	0.92	/	-2.5
> CCOC(=O)c1csc(COc2ccccc2Cl)n1
 : 102	/	i	/	1.2	/	/
> CCOC(=O)c1c(C2CC2)csc1NC(=O)COC(=O)c1cnc(Cl)c(Cl)c1
 : 105	/	i	-9	0.94	/	-0.8
> COc1ccc(-c2ccc(SCC(=O)NCc3ccco3)nn2)cc1
 : 107	/	i	-11	0.98	/	-0.2
> CCc1cccc(NC2c3ccccc3C(=O)N2c2ccc(C)cn2)c1 (stereo not given)
 : 93	/	i	1	0.84	/	-2.5
> COC(=O)c1ccccc1S(=O)(=O)N(CCCO)Cc1cc2c(C)ccc(C)c2[nH]c1=O
 : 103	135	i	-6	1.1	-137	-1.5
> O=C(c1ccc(F)cc1)C1CCN(C(=O)N2CCOCC2)CC1
 : 100	/	i	-12	0.88	/	0.3
> CCn1nc(C(=O)OCC(=O)NC(C)C)c2ccccc2c1=O
 : 101	/	i	5	0.99	/	/
